Source: PubChem BioAssay (National Center for Advancing Translational Sciences (NCATS))
NS1 inh = blocks influenza NS1 protein function. S. cerevisiae slowed by influenza A NS1, growth recovery by OD600. Potency, µM (doses to about 46.1 µM), for inactives: at the highest dose activity, positive = more growth. 270,000 compounds, 0.4% hits. AID 2326; active means well fitted rising curve with a large enough effect; inconclusive means small, poorly fitted or top-dose-only effect; inactive means no such curve, though single readings can be large or run the other way; further: nearly all actives have a fitted effect of over 50% in size
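OD600 was taken as the measure of yeast growth restored by compound in an NS1-expressing S. cerevisiae strain. Cells had been washed out of glucose medium and diluted 1:100 into galactose -URA medium, pH 6.0.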
2A StopGo = FMDV 2A StopGo reporter, luciferase signal | human cells with a luciferase reporter of 2A StopGo recoding; control for the full effect not named in the record | Potency, µM (doses to about 57.9 µM), for the others: top-dose signal change, negative = less light | 410,000 compounds, 1.2% hits; active = well fitted falling curve with a large enough effect; inconclusive = small, poorly fitted or top-dose-only effect; inactive = no such curve, though single readings can be large or run the other way; tested in HEK293T cells; further: on the % scale 0 is the no-effect control and ±100 the full control effect; nearly all actives have a fitted effect of over 45% in size; luciferase light after 4 h
RE007 growth inh = less growth of the S. pombe RE007 Vpr strain; Potency, µM (top dose mostly 92.2 µM), inactives show at the highest dose activity change, negative = less growth; S. pombe RE007 Vpr strain, BacTiter-Glo ATP luminescence, 24 h; control for the full effect not named in the record; 360,000 compounds, 0.21% hits; AID 651644; active = well fitted falling curve with a large enough effect; inconclusive = small, poorly fitted or top-dose-only effect; inactive = no such curve, though single readings can be large or run the other way;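 further: on the % scale 0 is the no-effect control and ±100 the full control effect; nearly all actives have a fitted effect of over 50% in size; the assay follows cell death caused by Vpr and the record does not say whether a fall means rescue or toxicity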
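Fission yeast RE007 carrying one integrated HIV-1 vpr copy, seeded at OD 0.01 in PMG+AL medium with 23 nL pinned compound. Grown 24 h at 30 degrees; viability read by BacTiter-Glo luminescence after 5 min.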
SARS PLP yeast = blocks SARS-CoV papain-like protease in a yeast assay. 330,000 compounds, 0.19% hits. Potency, µM (doses to about 32.9 µM), for inactives: top-dose activity, positive = growth rescue. AID 485353. S. cerevisiae expressing SARS-CoV PLpro, growth rescue; control for the full effect not named in the record; active means well fitted rising curve with a large enough effect; inconclusive means small, poorly fitted or top-dose-only effect; inactive means no such curve, though single readings can be large or run the other way; further: 0% is about no effect; nearly all actives have a fitted effect of over 55% in size; growth read by luminescence after 48 h
Cruzain Triton = blocks cruzain activity in presence of Triton detergent | P25779 | purified cruzain, Z-FR-AMC fluorescence, 0.01% Triton | Potency, µM, for inactives: max response, negative = inhibition, actives largely listed as inhibitors | 200,000 compounds, 0.43% hits;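 further: plate controls were neutral wells for no effect and buffer without enzyme for full effect; nearly all actives have a fitted effect of over 40% in size; top concentration of the series not given in the record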
Target sequence (P25779 123-467 limits assumed): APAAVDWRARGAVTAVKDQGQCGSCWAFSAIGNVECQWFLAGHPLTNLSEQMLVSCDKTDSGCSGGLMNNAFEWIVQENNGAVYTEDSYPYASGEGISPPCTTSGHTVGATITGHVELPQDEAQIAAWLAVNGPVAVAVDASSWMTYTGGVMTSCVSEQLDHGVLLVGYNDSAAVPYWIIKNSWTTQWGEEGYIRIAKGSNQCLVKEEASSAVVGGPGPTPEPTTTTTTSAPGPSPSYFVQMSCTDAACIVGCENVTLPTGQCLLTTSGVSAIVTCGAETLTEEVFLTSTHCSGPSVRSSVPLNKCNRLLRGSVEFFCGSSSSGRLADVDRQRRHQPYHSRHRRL
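Cruzain (1.5 nM) preincubated 15 min at RT with compound in 100 mM sodium acetate pH 5.5, 5 mM DTT, 0.01% Triton X-100. Reaction started with 2 uM Z-FR-AMC; AMC fluorescence (ex 360/em 450 nm) change over 60 s gave rate.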
MARV entry inh = inhibitors of Marburg virus binding or cell entry. 300,000 compounds, 1.8% hits. Marburg virus pseudotyped entry inhibition, cell reporter; control for the full effect not named in the record; about a third of the inactives were read at about 46 µM. Potency, µM (highest dose often 37.8 µM), for the others: at the highest dose activity change, negative = inhibition, hits mostly inhibitors; active = well fitted inhibition curve with a large enough effect; inconclusive = small, poorly fitted or top-dose-only effect, or effect the other way; inactive = flat fitted curve, though single readings scatter; tested in HEK293 cells; about a fifth of its hits are not listed in these tables; further: on the % scale 0 is the no-effect control and ±100 the full control effect; luciferase read-out
Cruzain inh noDet = cruzain (T. cruzi) inhibition without detergent. purified cruzain, Z-FR-AMC fluorescence, no detergent. 200,000 compounds, 2.3% hits. P25779. Potency, µM, without a hit: max response, negative = inhibition, hits mostly inhibitors;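 further: plate controls were enzyme without inhibitor for no effect and buffer without enzyme for full effect; nearly all actives have a fitted effect of over 40% in size; top concentration of the series not given in the record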
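Purified cruzain at 1.5 nM, pre-incubated 15 min with compound at room temperature in 100 mM sodium acetate pH 5.5, 5 mM DTT, 0.00005% Triton X-100. Reaction started with 2 uM Z-FR-AMC; AMC fluorescence increase over 60 s gives rate.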
Lassa entry inh = blocks Lassa virus binding to or entry into cells; Lassa virus pseudotype entry inhibition, cell reporter; control for the full effect not named in the record; Potency, µM (top dose mostly 37.9 µM), for inactives: top-dose activity change, negative = inhibition, most hits filed as inhibitors; 300,000 compounds, 1.2% hits; active means well fitted inhibition curve with a large enough effect; inconclusive means small, poorly fitted or top-dose-only effect, or effect the other way; inactive means flat fitted curve, though single readings scatter; tested in HEK293 cells; further: on the % scale 0 is the no-effect control and ±100 the full control effect; nearly all actives have a fitted effect of over 50% in size; luciferase read-out
An asterisk follows results filed as active; u = inconclusive; x = no result given; & = joins results of further samples; [ ] = dose if it differs, or a comment. Unless noted, the call rests on the fitted dose curve; in most records, active means well fitted curve in the direction sought with a large enough effect; inconclusive means small, poorly fitted or top-dose-only effect, or another doubt; inactive means no such curve, though single readings can be large; an effect the other way counts as inactive or inconclusive. Potency means the concentration at half of the fitted maximal effect. Rows are unselected, and some 4.5% of all compounds hit somewhere here.

Order of values: NS1 inh | 2A StopGo | RE007 growth inh | SARS PLP yeast | Cruzain Triton | MARV entry inh | Cruzain inh noDet | Lassa entry inh
Cc1ccc(N2C(=O)C(Cl)=C(NCCO)C2=O)c(C)c1
 : 3% | 0% | -2% | 8% | -0.6% | 2% | 0% | -1%
COc1ccc(-c2csc(NC(=O)CSCc3c(C)noc3C)n2)cc1OC
 : -18% | 40µM* | 2% | 3% | x | u | x | 11µM*
COc1ccc(NC(=S)NC(=O)Cc2ccccc2)cc1
 : -13% | 58%[activator] | -3% | 12% | x | x | x | x
O=C(CSc1nnc(SCc2ccccc2)s1)N/N=C/c1c[nH]c2ccccc12
 : x | 0% | -16% | 4% | x | u | x | -14%
COc1ccc(N2CCN(C(CNS(=O)(=O)c3cc(F)ccc3F)c3cccnc3)CC2)cc1 (centres undefined)
 : -3% | -9% | 10% | -11% | -0.5% | -18% | -4% | 2%
COc1ccc(OC)c(NC(=S)NCc2ccc(S(N)(=O)=O)cc2)c1
 : 4% | -4% | 8% | 0% | x | 9%[46.1 µM] | x | 11%[46.1 µM]
Cc1cc(C)n2cc(CSc3nnnn3-c3ccccc3C)nc2n1
 : -1% | -10% | -14% | 8% | -0.8% | -4% | 6% | u
Nc1ccc(Cc2nc3cc4ccccc4cc3[nH]2)cc1
 : 5% | x | 10% | -1% | -17% | u | -8% | 2.6µM*
Nc1cc2c(cc1Br)-c1ccc(F)cc1C2=O
 : x | 26% | -3% | x | x | 26%[46.1 µM] | x | 11%[46.1 µM]
COc1ccc(C(C(=O)NC2CCCCC2)N(CC2CCCO2)C(=O)CCCC(=O)Nc2ccccn2)cc1 (centres undefined)
 : -8% | 3% | -5% | -2% | x | -23%[46.1 µM] | x | -23%[46.1 µM]

The last four compounds of the part before come first, to join the parts.
Order of values: NS1 inh | 2A StopGo | RE007 growth inh | SARS PLP yeast | Cruzain Triton | MARV entry inh | Cruzain inh noDet | Lassa entry inh
Cc1cc(C)n2cc(CSc3nnnn3-c3ccccc3C)nc2n1
 : -1% | -10% | -14% | 8% | -0.8% | -4% | 6% | u
Nc1ccc(Cc2nc3cc4ccccc4cc3[nH]2)cc1
 : 5% | x | 10% | -1% | -17% | u | -8% | 2.6µM*
Nc1cc2c(cc1Br)-c1ccc(F)cc1C2=O
 : x | 26% | -3% | x | x | 26%[46.1 µM] | x | 11%[46.1 µM]
COc1ccc(C(C(=O)NC2CCCCC2)N(CC2CCCO2)C(=O)CCCC(=O)Nc2ccccn2)cc1 (centres undefined)
 : -8% | 3% | -5% | -2% | x | -23%[46.1 µM] | x | -23%[46.1 µM]
O=C(Nc1ccc(Cl)cn1)c1ccc2c(Cl)c3c(nc2c1)CCC3
 : 6% | -4% | 2% | 2% | x | x | x | x
CCc1nc2nc(C)cc(Nc3cc(Cl)ccc3C)n2n1
 : x | -15% | x | x | -3.5% | -1%[46.1 µM] | -2% | 0%[46.1 µM]
CCOCCn1ccc2c(OCC(=O)NCCc3ccc(OC)c(OC)c3)cccc2c1=O
 : x | -16% | 1% | 0% | x | 26% | x | 15%
O=C(Nc1cccnc1)Nc1ccc(Cl)cc1Cl
 : -6% | 16% | -6% | 0% | x | x | x | x
CSc1ccccc1C(=O)C1CCCN(C(=O)c2cc(C(C)C)no2)C1 (centres undefined)
 : -56% | -20% | -22% | -6% | x | -8%[46.1 µM] | x | -23%[46.1 µM]
CN(Cc1ccccc1)C(=O)COC(=O)Cn1cnc2ccccc21
 : x | -14% | 2% | -1% | x | -18% | x | 6%
COc1ccc(OCC(=O)Nc2c3c(nn2C(C)(C)C)CS(=O)(=O)C3)cc1
 : 10% | -23% | 40% | 0% | x | u | x | 17%
Cc1c(Nc2nc(-c3ccc(Cl)cc3)cs2)c(=O)n(-c2ccccc2)n1C
 : 21% | u | -7% | u | -2.0% | u | -6% | 4%
CCOC(=O)c1sc(S(C)=O)c2c1CCc1conc1-2 (centres undefined)
 : -2% | -15% | 4% | -1% | x | x | x | x
O=C(CCn1cnnn1)Nc1ccc(Cl)cc1Cl
 : -1% | -1% | 2% | 1% | x | 22% | x | 0%
COc1ccc2[nH]cc(C(O)CN3CCN(c4ccccc4)CC3)c2c1 (centres undefined)
 : 0% | x | x | 1% | 3.1% | x | -11% | x
COc1cccc(-n2nnc3c(sc4nc(C)cc(C)c43)c2=O)c1
 : x | 29% | x | x | 4.5% | u | -1% | u
Cc1ccc(C(C)NC(=O)c2ccco2)cc1 (centres undefined)
 : 4% | 10% | 18% | -4% | -1.5% | 7% | -3% | -8%
C/C=C/Cn1c(N(C)Cc2ccccc2)nc2c1c(=O)[nH]c(=O)n2C
 : u | -27% | 21% | -12% | -5.9% | u | -9% | -21%
O=C(c1cccs1)c1coc2ccc(O)cc12
 : -145% | 10% | -9% | -15% | -6.7% | u | -3% | 0%
O=C1N2c3ccccc3CCc3cccc(c32)C1(O)C(F)(F)F (centres undefined)
 : -67% | u | 14% | -17% | 1.8% | u | 7% | -20%
O=c1[nH]ncc(N/N=C\c2cccnc2)c1Cl
 : 4% | 17% | -13% | 0% | x | x | x | x
COc1cc(NC(=O)c2cc([N+](=O)[O-])ccc2NC(=O)CNC2CCCCC2C)cc(OC)c1 (centres undefined)
 : 6% | -24% | -12% | 1% | x | u | x | u
O=C(CO/N=C/c1ccccc1OC(F)F)NC1CCCC1
 : x | -16% | -4% | -4% | x | -11%[46.1 µM] | x | -19%
CC(C)CN(CC(C)C)S(=O)(=O)N1CCC(C(=O)NCCN2CCOCC2)CC1
 : -4% | -14% | 11% | -7% | 3.9% | -16% | 3% | -2%
O=C(CNC(=S)NC(=O)c1cccs1)c1ccccc1
 : 6% | 71%[activator] | -14% | -42% | -4.9% | 26% | 1% | 5%
CC(=O)c1cccc(NC(=O)c2nc(-c3ccccc3)n(-c3cccc(C)c3)n2)c1
 : x | -26% | x | x | -2.6% | u | -27% | -6%[46.1 µM]
O=C(CN1CCN(c2ccccc2F)CC1)c1ccc2cc[nH]c2c1
 : -1% | 12% | -8% | 2% | -13% | x | -18% | x
CCCOc1c(Br)cc(C(=O)OCC(=O)NC(=O)c2cccn2C)cc1OC
 : x | -7% | -21% | 4% | x | u | x | 4%
N#CCc1nc(CSc2nc3ccccc3o2)cs1
 : -15% | x | 13% | -5% | -1.4% | 16% | -4% | 8%
CCOc1ccc(-c2nnn(CCC#N)n2)cc1OC
 : -5% | -3% | 0% | 1% | x | 6%[46.1 µM] | x | -27%
O=C(CCc1c[nH]c2ccccc12)NCC1COc2ccccc2O1 (centres undefined)
 : x | -3% | -13% | 1% | x | u | x | -25%
Oc1ccc(-c2[nH]ncc2-c2cnn(-c3ccccc3)c2)c(O)c1
 : x | -8% | 12% | 12% | x | -9% | x | 4%
O=C(NC1CCCCCC1)C(=S)NCCc1ccccc1
 : 1% | 22% | -1% | 0% | x | 9%[46.1 µM] | x | 13%[46.1 µM]
COc1ccc(O)c(/C=N\NC(=O)CCn2nnc3ccccc32)c1
 : 1% | -6% | 3% | 11% | -1.1% | u | 0% | u
C/C(=N\O)C1/C(=N/O)CC2C1C2(C)C (centres undefined)
 : -9% | 2% | 20% | 1% | 2.1% | 0% | 2% | 2%
O=C(c1cccc(NS(=O)(=O)c2ccc(F)c(F)c2)c1)N1CCN(C(c2ccccc2)c2ccccc2)CC1
 : 17% | u | 24% | -18% | -3.2% | u | -30% | u
O=C(CN1CCN(c2ccc(F)cc2)CC1)Nc1ccc(-n2cnnn2)cc1
 : -1% | x | 2% | -4% | -0.7% | -7% | 4% | -3%
COc1cc2nc(NC(=O)c3ccc(S(=O)(=O)N4CCOCC4)cc3)sc2cc1OC
 : x | -10% | x | x | -1.4% | x | u | -2%[46.1 µM]
CCCOc1ccc(NC(N)=O)cc1OCCC
 : 6% | -7% | -9% | 0% | 0.9% | 17% | 3% | 3%
CC(=O)N(Cc1ccccc1)C1CC(=O)N(Cc2ccccc2)C1=O (centres undefined)
 : x | 16% | 9% | x | x | 13%[46.1 µM] | x | -3%[46.1 µM]
O=C(NCc1nnc(SCC(=O)N2CCCc3ccccc32)o1)c1c(F)cccc1Cl
 : x | 5% | 1% | 2% | x | -27% | x | 3%
CCOC(=O)CCC(NC(=O)CCCCCCCCC(=O)NC(CCC(=O)OCC)C(=O)OCC)C(=O)OCC (centres undefined)
 : -5% | -11% | 14% | -1% | 1.3% | 6%&-28% | u | 16%&1%
O=C(NCc1nnc2c3ccccc3c(-c3ccccc3)nn12)c1ccccc1Cl
 : -2% | -20% | -13% | 6% | -7.7% | u | 13% | u
CC(C)c1nccn1S(=O)(=O)c1cc(Cl)ccc1Cl
 : 5% | 10% | 8% | 0% | 4.0% | 20% | -14% | 2%
CCN1CCc2c(C#N)c(N3CCOCC3)nc(N3CCOCC3)c2C1
 : 0% | -5% | 0% | 7% | 2.0% | -9%[46.1 µM] | 2% | 6%
CCOc1ccc2[nH]c3ncccc3c(=O)c2c1
 : -5% | 8% | 1% | -3% | x | u | x | u
Cc1cccc(NCc2ccccc2OCc2ccccc2F)c1
 : 1% | -24% | 0% | -18% | -9.5% | u | -12% | -5%
COc1ccc(OC)c(-c2c(C#N)c(N)nc3c2c(=O)nc2sccn23)c1
 : x | -2% | 15% | 2% | x | -4%[46.1 µM] | x | 14%
COCCNC(=O)c1cc(-c2ccc(Cl)c(Cl)c2)on1
 : -5% | 37%[activator] | 13% | 0% | 3.0% | 0% | -6% | x
C=CCNc1nc(C)c(C(C)=O)cc1C#N
 : 17% | -12% | -19% | 26% | -0.4% | -1% | 0% | -4%
CC(=NNC(=O)c1ccncc1)c1cccc(Br)c1
 : x | 27% | -4% | x | x | 1%[46.1 µM] | x | 3%[46.1 µM]
Cc1ccc(OCC(=O)Nc2cc(S(=O)(=O)N3CCCCC3)ccc2C)c([N+](=O)[O-])n1
 : -4% | -20% | 22% | -9% | -2.0% | 1% | 15% | u
